D2 PAM – positive allosteric modulators of human D2 dopamine receptor; actives 0.23% (n = 360,000); potentiation, % (no concentration beside the values); P14416; AID 624464; DiscoveRx D2 beta-arrestin cells, luminescence, 90 min; 100% = 57 uM dopamine signal; active = potentiation of 50% or more; inconclusive = 30% to 50%; inactive = 30% or less;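 note: compound concentration not given in the record; tested on top of an EC20 dose of dopamine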
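PathHunter beta-arrestin assay in DiscoveRx D2 cells. Compounds were added with an EC20 of dopamine (50 nM final) for 90 min at 37 deg C. Luminescence was read 1 h after detection reagent, with 57 uM dopamine as the EC100 control.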
CtBP-E1A blk – inhibitors of CtBP/E1A interaction; actives 0.49% (n = 340,000); activity change, % (no concentration beside the values); AlphaScreen GST-E1A/His-CtBP binding, 1536-well; hits give low values; control for the full effect not named in the record; in the data active means activity change below about -65%; inconclusive means about -30% to -65%; inactive means above about -30%; note: % is set by controls: 0 for no effect and ±100 for the full control effect; compound concentration not given in the record
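Homogeneous bead-based format: GST-tagged E1A captured on glutathione donor beads, His-tagged CtBP on nickel acceptor beads; compounds precede bead addition by 2 h at 37 °C.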
Six1-Eya2 inh – Six1/Eya2 interaction inhibition | actives 0.56% (n = 360,000) | activity change, % (test concentration not listed) | Q15475+O00167 | AlphaScreen GST-Six1/His-Eya2 binding, biochemical; hits give low values; control for the full effect not named in the record | AID 651725; in the data active = activity change below about -65%; inconclusive = about -30% to -65%; inactive = above about -30%; note: % is set by controls: 0 for no effect and ±100 for the full control effect; compound concentration not given in the record
Target sequence (O00167 whole entry, looked up): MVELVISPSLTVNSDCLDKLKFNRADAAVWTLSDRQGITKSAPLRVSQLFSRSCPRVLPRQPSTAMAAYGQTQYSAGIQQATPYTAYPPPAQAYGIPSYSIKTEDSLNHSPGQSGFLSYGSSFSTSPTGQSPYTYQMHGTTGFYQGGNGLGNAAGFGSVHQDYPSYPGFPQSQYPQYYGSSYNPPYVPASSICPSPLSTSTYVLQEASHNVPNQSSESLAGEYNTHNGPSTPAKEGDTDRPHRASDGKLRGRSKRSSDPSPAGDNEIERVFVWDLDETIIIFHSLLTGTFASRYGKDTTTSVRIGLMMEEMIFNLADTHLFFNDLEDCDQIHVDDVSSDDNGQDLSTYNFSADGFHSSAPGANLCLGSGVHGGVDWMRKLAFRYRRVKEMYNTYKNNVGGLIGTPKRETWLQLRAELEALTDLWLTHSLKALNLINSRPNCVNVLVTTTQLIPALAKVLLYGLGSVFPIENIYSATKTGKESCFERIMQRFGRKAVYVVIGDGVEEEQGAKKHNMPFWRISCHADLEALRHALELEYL
Target sequence (Q15475 whole entry, looked up): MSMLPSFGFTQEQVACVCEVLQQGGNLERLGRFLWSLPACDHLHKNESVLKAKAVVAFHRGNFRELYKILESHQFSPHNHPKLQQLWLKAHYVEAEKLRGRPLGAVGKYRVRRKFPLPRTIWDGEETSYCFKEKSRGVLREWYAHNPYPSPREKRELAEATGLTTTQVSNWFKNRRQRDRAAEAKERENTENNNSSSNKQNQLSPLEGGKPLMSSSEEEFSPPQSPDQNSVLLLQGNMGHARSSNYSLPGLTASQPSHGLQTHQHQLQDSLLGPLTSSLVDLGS
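GST-Six1 + His-Eya2 (5X stock: 250/500 nM); Tris pH 8.0, 300 mM NaCl, 0.05% BSA, 0.02% Tween 20; GSH donor/Ni acceptor beads; 1 h 37 °C dark; AlphaScreen readout.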
D2 agonist – activates the human D2 dopamine receptor; P14416; DiscoveRx PathHunter D2 beta-arrestin, luminescence, 90 min; 100% = 57 uM dopamine signal; activation, % (concentration not given with the values); actives 0.084% (n = 360,000); in the data active = activation above about 40%; inconclusive = about 15% to 40%; inactive = below about 15%; note: compound concentration not given in the record; the text of the record calls up to 30% inactive
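Agonist mode: compounds alone added to overnight-plated D2 PathHunter cells for 90 min at 37 C, with 57 uM final dopamine (EC100) defining full response. Beta-arrestin recruitment detected by chemiluminescent reagent, read after 1 h at ambient temperature.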
gsp agonist – gsp mutant agonism. gsp mutant cells, cAMP HTRF, 30 min; control for the full effect not named in the record. Potency, µM (highest dose often 76.9 µM), inactives show at the highest dose activation (cAMP increase), most hits filed as activators. actives 0.13% (n = 340,000). AID 624287; active = well fitted activation curve with a large enough effect; inconclusive = small, poorly fitted or top-dose-only effect, or another doubt; inactive = no such curve, though single readings can be large or run the other way; cell line not stated here;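 note: phosphodiesterase inhibitor Ro 20-1724 added with compounds to block cAMP breakdown; potency is the fitted concentration of half-maximal effect; nearly all actives have a fitted effect of over 60% in size; about a fifth of the inactives were tested at one dose only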
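Cells stably selected in G418 were plated at 2000/well, grown 16-24 hr, then given compounds in DMSO with the PDE inhibitor […] (300 uM solution added) for 30 min at 37C; cAMP was read by HTRF.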
gsp antagonist – gsp mutant antagonism | gsp-mutant cells, cAMP HTRF, 30 min; control for the full effect not named in the record | Potency, µM (highest dose often 76.9 µM), inactives show top-dose activity change, negative = inhibition, most hits filed as inhibitors | actives 0.4% (n = 340,000) | AID 624288; active = falling curve of any shape with a large fitted effect; inconclusive = falling curve, mostly with a smaller effect; inactive = flat or rising curve; cell line not stated here;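 note: intracellular cAMP measured with PDE inhibitor Ro 20-1724 present during compound exposure; potency is the fitted concentration of half-maximal effect; % is set by controls: 0 for no effect and ±100 for the full control effect; nearly all actives have a fitted effect of over 65% in size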
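G418-selected cells were plated in DMEM/10% FBS for 16-24 h at 37C, then treated with compounds plus the PDE inhibitor […] (300 uM solution added) for 30 min at 37C. Intracellular cAMP was measured by HTRF after 30 min lysis at room temperature.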
* hit, by the source's call; ? = inconclusive; . = not tested or not shown; [ ] = dose if it differs, or a comment. Compounds as they come. About 1.4% of those tested had a hit in this group.

SMILES	D2 PAM	CtBP-E1A blk	Six1-Eya2 inh	D2 agonist	gsp agonist	gsp antagonist
O=C(CN(CC1CCCO1)C(=O)CNS(=O)(=O)c1ccc(Cl)cc1)NCC1CCCO1 (stereo not given)	6	7	4	-0.1	-7%	-4%
CC(/C=N\NC(=O)Cn1cncn1)=C/c1ccc(C(C)C)cc1	2	6	-6	1.4	-8%[15.4 µM]	9%
CCOC(=O)c1sc2nc3n(c(=O)c2c1C)CCC3	-5	2	5	2.3	?	-9%
CC(C)NC(=O)COC(=O)c1ccc(S(=O)(=O)N2CCCC2)cc1	-6	7	26	2.8	7%	-3%
CN(Cc1c(F)cccc1Cl)C(=O)C1CC(=O)N(CCc2ccccc2)C1 (stereo not given)	0	1	-1	1.8	2%[15.4 µM]	-2%
CSCCC(N=C(NS(=O)(=O)c1ccccc1)c1ccccc1)C(=O)O (stereo not given)	-1	10	2	-3.8	2%[15.4 µM]	5%
COc1ccc(C(C)NC(=O)c2ccc(Br)cc2)cc1OC (stereo not given)	8	11	1	-0.7	10%	9%
CCC(C)c1ccc(NC(=O)C2CCN(c3ccc(C(F)(F)F)cn3)CC2)cc1 (stereo not given)	-8	1	6	0.1	-28%	7%
C=CCNC(=O)CN1c2cccc3cccc(c23)S1(=O)=O	-1	.	32	0.4	0%	2%
Cc1ccccc1/C=N/NC(=O)Cn1cnc([N+](=O)[O-])n1	2	1	0	-0.9	9%	3%
CN(Cc1ccccc1)c1ccc(C(CC(N)=O)NC(=O)c2ccc(Br)cc2)cc1[N+](=O)[O-] (stereo not given)	-24	-15	-21	-2.0	-3%	-17%
CCCCc1cc(=O)oc2cc(C)cc(OCC(=O)N3CCC(C(=O)O)(c4ccccc4)CC3)c12	-9	-1	-2	2.5	.	-1%
COc1ccc2[nH]c(C(=O)O)c(CCNC(C)=O)c2c1	-7	5	1	-2.4	-4%	9%
COc1cc(OC)cc(C(=O)NC(C(=O)O)C23CC4CC(CC(C4)C2)C3)c1 (stereo not given)	-13	7	8	-2.1	-8%[15.4 µM]	.
CC(=O)N1c2c(cc(Br)cc2S(=O)(=O)N2CCN(c3ccccc3F)CC2)CC1C (stereo not given)	-3	-12	-22	1.5	-1%[15.4 µM]	-10%
Cc1ccc(N(C(C)C(=O)Nc2ccc3c(c2)OCO3)S(C)(=O)=O)cc1 (stereo not given)	20	-11	1	-1.0	-7%	0%
Cc1c(Cl)ccc2c(C(=O)Nc3cc(C(C)(C)C)on3)cc(-c3ccccn3)nc12	10	7	2	-1.8	5%	1%
O=C(CCSCCC(=O)NN=Cc1ccc(F)cc1)NN=Cc1ccc(F)cc1	-1	0	-2	-0.2	-7%	-18%
Cc1ccc(NC(=O)CN2C(=O)S/C(=C/c3ccncc3)C2=O)cc1	-7	6	-4	2.3	-4%[15.4 µM]	11%
Cc1cc(C(=O)O)oc(=O)c1	0	2	6	-5.5	-1%[15.4 µM]	5%

Profiles, quoted from the list. Order of values: D2 PAM	CtBP-E1A blk	Six1-Eya2 inh	D2 agonist	gsp agonist	gsp antagonist
O=C(CN(CC1CCCO1)C(=O)CNS(=O)(=O)c1ccc(Cl)cc1)NCC1CCCO1 (stereo not given) is listed with 6	7	4	-0.1	-7%	-4%
COc1ccc(C(C)NC(=O)c2ccc(Br)cc2)cc1OC (stereo not given) is listed with 8	11	1	-0.7	10%	9%
Cc1ccc(N(C(C)C(=O)Nc2ccc3c(c2)OCO3)S(C)(=O)=O)cc1 (stereo not given) is listed with 20	-11	1	-1.0	-7%	0%
COc1ccc2[nH]c(C(=O)O)c(CCNC(C)=O)c2c1 is listed with -7	5	1	-2.4	-4%	9%
CN(Cc1ccccc1)c1ccc(C(CC(N)=O)NC(=O)c2ccc(Br)cc2)cc1[N+](=O)[O-] (stereo not given) is listed with -24	-15	-21	-2.0	-3%	-17%

Other records
SMILES	D2 PAM	CtBP-E1A blk	Six1-Eya2 inh	D2 agonist	gsp agonist	gsp antagonist
CS(=O)(=O)N(CC(=O)N1CCN(Cc2ccc3c(c2)OCO3)CC1)C1CCCCC1	-5	-8	-4	-3.5	-3%[15.4 µM]	4%
Cc1sc2ncn(C(C)C(=O)OC3CCCCC3)c(=O)c2c1C (stereo not given)	-10	1	5	-1.0	-2%	?
CN(CCc1ccccc1)C(=O)c1ccc(NC(=O)Cc2ccc(NC(=O)C3CCCN(C(=O)C4CCCCC4)C3)cc2)cc1 (stereo not given)	-6	1	-3	-2.0	.	-10%
O=C(COc1ccccc1Cl)Nc1cnn(Cc2ccccc2)c1	-13	-2	-10	0.7	-4%	3%
CCOC(=O)C1=C(O)C(=O)N(c2ccc(S(N)(=O)=O)cc2)C1c1ccccc1 (stereo not given)	1	5	5	-1.3	17%	-1%
CCc1ccc(NC(=O)CN(N=Nc2nonc2C)c2nonc2C)cc1	-20	-12	-5	-5.8	0%[15.4 µM]	5%
Cc1cc(CNC(=O)c2cc(-c3ccccc3)nc3ccccc23)nn1C	0	13	-11	4.4	-8%[15.4 µM]	-4%
Cc1cc(C)nc(SSc2nc(C)cc(C)n2)n1	-6	1	-3	10	?	1%
COc1cc(C(=O)OCc2ccc([N+](=O)[O-])cc2)cc(OC)c1OC	-10	.	-10	-0.9	3%	63%[activator]
CC(C)c1onc(C(=O)N2CCOCC2)c1[N+](=O)[O-]	-1	3	8	-2.3	-36%[inhibitor]	3%
CS(=O)(=O)N1CCN(c2nc3ccccc3s2)CC1	-8	4	2	2.0	5%	5%
CCN(CC)CCNC(=O)C1CCN(S(=O)(=O)c2c(C)noc2/C=C/c2ccccc2F)CC1	-20	-14	-3	5.5	-6%	13%
CCN1CCCC1CN(Cc1cc2c(C)cc(C)cc2[nH]c1=O)C(=O)NC1CCCCC1 (stereo not given)	-37	-4	-4	0.5	-20%	4%
Cc1ccc(S(=O)(=O)CCC(=O)Nc2ccc3nc(C)sc3c2)cc1	-7	.	-6	0.3	3%	-2%
Cc1ccccc1N1C(=O)C(Cl)=C(N2CCOCC2)C1=O	-3	.	2	2.8	-6%	0%
O=C(COc1cccc2c1CCNC2=O)Nc1ccc(F)cc1	-8	1	0	2.6	-7%	7%
COc1ccc(-c2nnc(-c3cc4c(ccc5ccccc54)oc3=O)o2)cc1	-2	10	10	0.3	-46%[inhibitor]	12%
CC1CCCCN1C(C(=O)O)c1ccccc1 (stereo not given)	1	3	2	1.1	-13%	8%
COc1ccc(CC(=O)NCc2ccccc2)cc1OC	-1	0	2	-2.2	-52%[inhibitor]	13%
C/C(=N/NC(=O)CNC(=O)C1COc2ccccc2O1)c1cccc(O)c1 (stereo not given)	-5	.	0	-4.0	1%	-9%
Cc1cc(C)cc(NC(=O)CSc2nccn2Cc2ccco2)c1	-28	1	-11	-5.3	-61%[inhibitor]	2%
NC(=O)c1ccc[n+](CC(=O)OCCC23CC4CC(CC(C4)C2)C3)c1	-3	0	2	-1.6	-31%[inhibitor]	10%
Cc1cc(Br)c(NC(=O)COn2nnc3ccc(S(C)(=O)=O)cc32)c(Br)c1	1	1	6	1.6	28%[15.4 µM]	0%
O=C(CSc1nc(=O)n2ccccc2n1)N1CCCc2ccccc21	-11	-2	-2	0.7	?	-5%
COc1cccc(NC(=O)Cn2c(=O)c3c(ncn3Cc3ccccc3)n(Cc3ccccc3)c2=O)c1	12	-4	1	-0.8	-21%	5%
CC(=O)N1N=C(c2ccncc2)OC12CCCCCC2	14	-2	3	-1.1	19%	-17%
CC(=O)N1CCN(S(=O)(=O)c2cccc(C(=O)Nc3ccc(C)cn3)c2)CC1	3	0	4	0.6	-20%	3%
COc1cc(C2C(Oc3ccccc3C)C(=O)N2Cc2ccc(F)cc2)cc(OC)c1OC (stereo not given)	-8	-2	1	-4.9	-12%[15.4 µM]	9%
Cc1ccc(CONC(=O)/N=C/N(C)C)cc1	6	3	2	-1.7	-46%[inhibitor]	4%
Cc1cn(C2C=CC(CO)O2)c(=O)[nH]c1=O (stereo not given)	-6	2	-1	-3.3	-3%	11%
O=C(Nc1nnc(CCc2ccccc2)s1)c1ccccc1	-1	-4	13	1.2	7%	0%
COc1cccc(/C(C)=N/NS(=O)(=O)c2ccc(Cl)cc2)c1	4	7	20	5.5	-14%	-12%
CCN(CC(=O)N1CCN(C)CC1)S(=O)(=O)c1ccc(Cl)cc1	-33	18	10	-2.2	-1%	3%
O=C(C1CCCN1S(=O)(=O)c1cccc2cccnc12)N1CCN(c2ccccc2)CC1 (stereo not given)	-6	-9	-10	-2.8	-18%	-11%
O=C1c2cc(S(=O)(=O)NCCCO)ccc2-c2ccc(S(=O)(=O)NCCCO)cc21	17	-5	2	-0.5	2%	14%
O=C(NCCO)c1cc2c([nH]c3ccccc32)c(-c2ccc(F)cc2)n1	-2	-13	-9	2.0	-47%[inhibitor]	-23%
COc1ccccc1NC(=O)COC(=O)c1ccc([N+](=O)[O-])s1	18	-27	-19	2.8	1%[15.4 µM]	8%
CCOC(=O)CSc1nc(C)[nH]c1[N+](=O)[O-]	-2	-16	-1	-5.0	?	8%
COc1cc(-c2cnc3c(NC=O)cc(-c4ccccc4)cn23)cc(OC)c1OC	1	-18	-22	-1.9	.	.
CN(CC(=O)Nc1cccc2c1CCCC2)S(=O)(=O)c1ccc(Cl)cc1	-15	7	6	-3.2	-21%	11%
CCOC(=O)Nc1ccc2c(c1)N(C(=O)CN(CC)CC)c1ccccc1CC2	-15	7	6	0.8	17%[15.4 µM]	5%
Cc1nn2c(=O)c(NC(=O)c3ccc(Cl)cc3)cnc2s1	-1	0	-1	-1.5	20%	2%
COc1ccc(CNC(=O)COC(=O)CC2CC3CCC2C3)cc1OC (stereo not given)	-13	1	1	1.5	-46%	-2%
CC(NC(=O)C(C(=O)c1cccc([N+](=O)[O-])c1)n1cc(Cl)ccc1=O)c1ccccc1 (stereo not given)	-4	-3	7	-3.4	2%	7%
CCN(C(=O)Nc1ccccc1OC)c1c(N)n(Cc2ccccc2)c(=O)[nH]c1=O	-7	4	3	-1.8	-22%	5%

Limited to D2 agonist, gsp agonist and CtBP-E1A blk, for some of the entries so far:
| Compound | D2 agonist | gsp agonist | CtBP-E1A blk |
| --- | --- | --- | --- |
| CCOC(=O)Nc1ccc2c(c1)N(C(=O)CN(CC)CC)c1ccccc1CC2 | 0.8 | 17%[15.4 µM] | 7 |
| Cc1nn2c(=O)c(NC(=O)c3ccc(Cl)cc3)cnc2s1 | -1.5 | 20% | 0 |
| COc1ccc(CNC(=O)COC(=O)CC2CC3CCC2C3)cc1OC (stereo not given) | 1.5 | -46% | 1 |
| CC(NC(=O)C(C(=O)c1cccc([N+](=O)[O-])c1)n1cc(Cl)ccc1=O)c1ccccc1 (stereo not given) | -3.4 | 2% | -3 |

Bioassay records as filed in PubChem BioAssay.
